FGF22 binding = binders of human FGF22 protein, primary screen, FGF22 synaptogenesis inhibitor project, biophysical, thermal shift, single point; Fibroblast growth factor 22 (Homo sapiens), Q9HCT0; 340,000 tested, 1.5% active; recombinant FGF22 thermal shift, SYPRO orange fluorescence; percent of sucrose octasulfate shift, DMSO zero; calls only at 9.99 µM;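 active = melting point raised past a set limit in the mean and every replicate; inconclusive = no clear call; three in four hits are not shown here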
T cruzi inh = inhibitors of intracellular T. cruzi growth, primary screen, luminescence, NIH3T3 host cells; T. cruzi beta-gal in NIH3T3, 90 h; inhibition, % (no concentration beside the values); 300,000 tested, 1.4% active; AID 1885, 2009;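 active = mean inhibition across valid replicates above about 55%, limit read from the data; inconclusive = mean below that limit but half or more replicates reach it; inactive = mean below it, under half of replicates reach it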;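 note: signal also drops with host cell toxicity which is not excluded here; 0% = plate median of DMSO wells and 100% = zero luminescence signal; higher percent means less beta-gal luminescence so fewer parasites; stock transfer was 50 nL into about 50 µL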
UCH37 DUB inh = inhibitors of human UCH37 deubiquitinase, primary screen, biochemical, Ub-AMC cleavage, fluorescence | purified proteasome/UCH37 | inhibition, % (test concentration not listed) | Ubiquitin carboxyl-terminal hydrolase isozyme L5 (Homo sapiens), Q9Y5K5 | 330,000 tested, 0.33% active;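 active = mean of two replicates above 20%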;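 note: 0% = compound-free wells with enzyme and 100% = wells lacking proteasome; stock transfer was 100 nL into about 20 µL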
Target sequence (Q9Y5K5 whole entry, looked up): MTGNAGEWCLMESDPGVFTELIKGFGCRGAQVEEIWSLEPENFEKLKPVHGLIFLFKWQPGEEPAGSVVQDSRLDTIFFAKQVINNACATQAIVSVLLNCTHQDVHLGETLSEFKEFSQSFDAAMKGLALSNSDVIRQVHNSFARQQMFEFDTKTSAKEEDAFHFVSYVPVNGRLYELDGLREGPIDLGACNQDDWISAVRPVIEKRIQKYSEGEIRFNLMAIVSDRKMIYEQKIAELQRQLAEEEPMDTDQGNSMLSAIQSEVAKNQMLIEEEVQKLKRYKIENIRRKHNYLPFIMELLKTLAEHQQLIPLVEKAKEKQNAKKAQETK
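Material: human UCH37 enzyme supplied as purified proteasome complex. Measure: % inhibition of Ub-AMC cleavage fluorescence. Medium: pH 7.4 Tris-HCl (50 mM) with ovalbumin, ATP-MgCl2, DTT. Times: 30 min preincubation with enzyme, 25 min cleavage at room temperature. Detection: AMC fluorescence intensity at 355/460 nm.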
A1 inh = caspase 3/7 activation in MEF A1-2A-BIM cells, primary screen, A1 inhibitor project, cell-based, luminescence, HTS | Caspase-Glo 3/7 luminescence, 3 h; percent of clofoctol response, vehicle zero | caspase activation, % (concentration not given with the values) | 330,000 tested, 0.066% active | AID 2462, 2010;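 active = over half of replicate activation scores above 10%, or exactly half above 10 with the replicate mean above 10; inconclusive = replicate mean below 10 yet half the replicates above 10; inactive = over half of replicates below 10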;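 note: wells of about 30 µL received 50 nL stock; many hits fall short of the cut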
E coli growth = E. coli growth inhibition, primary screen, OD600; 330,000 tested, 0.21% active; Escherichia coli growth, 23 h; active compounds read low; OD600 absorbance (concentration not given with the values); AID 1053175, 2014;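 active = OD600 absorbance below the run mean of sample wells minus 3.6 SD, in any replicate, cut at about 0.56 in these data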;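 note: stock transfer was 300 nL into about 60 µL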
MLL AF4-AF9 inh = inhibitors of AF4 peptide binding to AF9, primary screen, biochemical, AlphaScreen, biotin-AF4 peptide, FLAG-AF9, single point | Protein AF-9 (Homo sapiens), P42568 | inhibition, % at 10 µM | 350,000 tested, 0.47% active | AID 651704, 2012;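 active = every replicate reaching a set inhibition limit, whatever the replicate mean, cut at about 25% in these data; inconclusive = mean inhibition reaches that limit but some replicates miss it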;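 note: 0% = plate neutral control median and 100% = total signal loss; the record names both 10 and 1 µM as test concentration; the first replicate is given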
Target sequence (P42568 whole entry, looked up): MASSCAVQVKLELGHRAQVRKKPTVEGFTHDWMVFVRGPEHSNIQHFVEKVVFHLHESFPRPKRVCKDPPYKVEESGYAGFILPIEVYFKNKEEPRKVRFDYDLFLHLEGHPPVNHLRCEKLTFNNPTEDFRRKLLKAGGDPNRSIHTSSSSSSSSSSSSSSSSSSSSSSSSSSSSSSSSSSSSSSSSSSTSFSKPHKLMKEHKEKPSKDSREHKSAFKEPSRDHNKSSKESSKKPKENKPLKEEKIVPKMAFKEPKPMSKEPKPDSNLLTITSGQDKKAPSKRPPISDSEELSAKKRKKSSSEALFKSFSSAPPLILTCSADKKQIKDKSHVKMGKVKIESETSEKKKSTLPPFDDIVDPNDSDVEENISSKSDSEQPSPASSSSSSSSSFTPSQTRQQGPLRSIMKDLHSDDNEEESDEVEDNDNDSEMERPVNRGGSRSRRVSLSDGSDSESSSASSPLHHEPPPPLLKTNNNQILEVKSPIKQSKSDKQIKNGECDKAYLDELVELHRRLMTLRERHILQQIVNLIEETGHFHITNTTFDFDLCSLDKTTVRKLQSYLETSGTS
rRNA inh HTS = reduced GFP signal of wild-type E. coli, primary screen, bacterial rRNA inhibitor project, GFP/RFP fluorescence, OD600, single point. E. coli WT GFP vs humanized-ribosome RFP mutants, 24 h; active compounds read low; DMSO median 0, no signal -100. GFP signal change (wild-type ribosome), % (concentration not given with the values). 350,000 tested, 1.6% active. AID 720706, 2013;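 active = significant combined selectivity score with lowered wild-type GFP, culture density cut under 30%, mutant RFP and density less affected; inactive = any of these conditions unmet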; note: one replicate is shown; some compounds called inactive have numbers as strong as hits
Beta cell apopt = inhibitors of cytokine-induced beta cell apoptosis, primary screen, luminescence; INS-1E cytokine-induced death, ATP luminescence, 48 h; percent of positive-control rescue, neutral wells zero; protection from apoptosis, % (no concentration beside the values); 300,000 tested, 0.8% active; AID 435005, 2010;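 active = all replicates at 75% or more, or half of them and the mean; inconclusive = half reach 75% but not the mean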;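 note: 0% = cytokine-treated negative control wells and 100% = positive control rescue; higher means more ATP so stronger rescue from cytokine killing; wells of about 40 µL received 100 nL stock; the first replicate is given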
rRNA inh HTS OD600 = further read-out of rRNA inh HTS, marked with its call; OD600 change, %; measured here: OD600 growth;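 optical density of the mix in the first replicate; 0 = DMSO median and -100 = no signal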
rRNA inh HTS RFP = also measured in rRNA inh HTS; calls as there; RFP signal change, %; measured here: RFP humanized mutant strains;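 first replicate; 0 = DMSO median and -100 = no signal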
Numbers without * were called inactive; i = inactive; ? = inconclusive; nt = no result given. Some of the compounds tested, so the mix of outcomes need not match the whole.

structure	FGF22 binding	T cruzi inh	UCH37 DUB inh	A1 inh	E coli growth	MLL AF4-AF9 inh	rRNA inh HTS	rRNA inh HTS OD600	rRNA inh HTS RFP	Beta cell apopt
CCOc1ccc2nc(C(=O)N3CCCC(C)C3)sc2c1 (centres undefined)	i	14	4.5	-12	0.66	-2.0	-7	-10	-0.5	5
COCCNC(=O)/C(C#N)=C\c1ccc(CNS(=O)(=O)c2ccc(C)cc2)o1	i	3	16	-0.4	0.68	-1.2	15	13	2.1	-1
Cc1c(C(=O)Nc2ccc3c(c2)CCC3)cccc1[N+](=O)[O-]	i	8	3.3	-0.8	0.68	-6.0	-4	-1	-2.5	5
O=C(Nc1ccccc1C(F)(F)F)c1cc(-c2cccc(O)c2)on1	nt	-11	0.5	0.1	0.66	nt	nt	nt	nt	-2
Cc1c(NC(=O)Nc2ccccc2C(F)(F)F)c(=O)n(-c2ccccc2)n1C	i	-20	1.3	0.9	0.67	1.5	8	7	-1.9	-1
COc1ccc(-c2nc(-c3ccc4c(c3)OCO4)[nH]c2-c2ccc(OC)cc2)cc1	nt	49	-133	-0.7	0.68	nt	nt	nt	nt	33
Cc1cc(C)c(NS(=O)(=O)c2ccc3c(c2)NC(=O)CCS3)c(C)c1	i	4	0.2	-0.7	0.69	-0.9	-40	-48	-7.2	0
Cc1ccccc1OCCC(=O)Nc1ccc(Cl)cc1F	i	-16	1.2	1.1	0.64	-1.0	-11	-12	2.4	-5
CCc1nn(C(CC)C(=O)NCc2cccc(OC)c2OC)c(=O)c2cc3occc3n12 (centres undefined)	i	-7	6.6	1.2	0.71	-2.3	0	-5	-2.0	0
COc1ccc(Nc2cnn(-c3nc4ccccc4s3)c(=O)c2Cl)cc1	i	31	4.9	-0.2	0.62	-2.7	-25*	-19*	-8.2*	6
Cc1cc(C(F)F)n2ncc(C(=O)NCCc3ccc(Cl)cc3)c2n1	nt	28	0.5	0.0	0.72	nt	nt	nt	nt	0
CCc1nc2ccccc2n1CC(=O)NC1CCS(=O)(=O)C1 (centres undefined)	i	nt	3.1	-0.2	0.71	-0.8	6	7	-0.6	-3
CN(CCCNC(=O)C1CCC(CNS(=O)(=O)c2ccccc2)CC1)Cc1ccccc1 (centres undefined)	i	15	3.6	0.6	0.7	-2.2	14	10	-5.4	-2
COc1ccc(CC(=O)OC(C)CN2CCCC2)cc1 (centres undefined)	nt	-13	1.5	0.0	0.66	nt	nt	nt	nt	0
Cc1ccccc1C(=O)NC(=S)Nc1sc2c(c1C#N)CCC(C)C2 (centres undefined)	nt	18	6.8	-0.7	0.81	nt	nt	nt	nt	4
CCOCCn1c(=O)c2c(nc3n2CC(C)CN3CCc2ccccc2)n(C)c1=O (centres undefined)	i	-4	3.6	-1.1	0.66	-9.2	2	5	-1.1	4
c1ccc(-c2cc3c(N4CCN(c5ccccc5)CC4)ncnc3s2)cc1	i	-27	-211	0.2	0.69	0.2	7	-1	23	-4
CCOC(=O)N1CCN(CC(=O)Nc2c(C(=O)OC)[nH]c3cc(C)ccc23)CC1	nt	-23	-2.0	0.8	0.69	nt	nt	nt	nt	2
CC(C)=CCCC(C)CN1CCC(N2CCC(C(=O)N3CCCC3)CC2)CC1 (centres undefined)	i	-7	4.9	1.1	0.68	-2.5	10	14	-4.2	16
Cc1cc(C)c2nc(N(CCCN(C)C)C(=O)c3ccc(S(=O)(=O)N4CC(C)OC(C)C4)cc3)sc2c1 (centres undefined)	i	59*	-0.1	0.1	0.63	15	-11	-10	0.6	nt
CC(c1n[nH]c(=S)n1-c1ccc(Cl)cc1)N(C)C (centres undefined)	i	10	2.4	0.0	0.68	-4.9	10	4	-10	6
Cc1cc(N2C(=O)c3ccc(C(=O)Nc4ccc(O)cc4C(=O)O)cc3C2=O)no1	i	-17	nt	0.5	nt	7.9	6	7	-2.0	-3
O=C(Oc1coc(CSc2ncccn2)cc1=O)c1ccco1	i	-11	7.0	-0.9	0.7	2.7	1	4	-4.5	-8
CC(C)CCNC(=O)C(C)N(Cc1ccc(F)cc1)C(=O)c1ccc(CN2CCCCC2)o1 (centres undefined)	i	11	-3.5	?	0.66	-65	nt	nt	nt	-1
CCCCNC(=O)N(C)c1nc2ccccc2s1	i	-11	-0.9	-1.1	0.72	-0.1	-12	-5	-0.1	-9
O=C(CSc1nnnn1-c1ccc(O)cc1)NC1CCCCC1	i	5	1.9	0.1	0.65	2.3	-1	-5	-4.7	-9
COc1ccc(CC(=O)N2N=C(c3ccncc3)CC2(O)C(F)(F)F)cc1 (centres undefined)	i	-43	-1.1	-0.8	0.74	-0.5	1	6	1.1	3
CC(C)Cn1c2c(c(O)c(C(=O)Nc3nc4ccccc4s3)c1=O)CCCC2	i	-9	-197	0.7	0.72	-2.3	-5	16	0.5	3
C/C=C/c1ccc(OCCOc2ccc(C=O)cc2OC)c(OC)c1	i	-13	1.2	0.3	0.66	-1.7	5	-1	-0.6	4
O=C(Cn1cnc2ccccc21)c1ccccc1	i	9	1.6	1.4	0.7	1.6	6	3	0.4	nt

The last 2 records of the section above lead into the next:
structure	FGF22 binding	T cruzi inh	UCH37 DUB inh	A1 inh	E coli growth	MLL AF4-AF9 inh	rRNA inh HTS	rRNA inh HTS OD600	rRNA inh HTS RFP	Beta cell apopt
C/C=C/c1ccc(OCCOc2ccc(C=O)cc2OC)c(OC)c1	i	-13	1.2	0.3	0.66	-1.7	5	-1	-0.6	4
O=C(Cn1cnc2ccccc21)c1ccccc1	i	9	1.6	1.4	0.7	1.6	6	3	0.4	nt
O=S(=O)(c1ccc(Br)cc1)c1nc(-c2ccccc2)oc1NCCN1CCOCC1	i	14	-1.4	0.4	0.7	3.9	-14	-26	4.4	nt
COC(=O)c1c(C)oc(C)c1S(=O)(=O)NCc1ccc(Cl)cc1	i	-8	2.1	-0.6	0.68	29*	-11	-5	-0.8	-5
CSc1ccc(S(=O)(=O)NC2CCCCC2)cc1	nt	-2	1.3	0.3	0.67	nt	nt	nt	nt	-4
Cc1cc(C)n2nc(S(=O)(=O)N(C)Cc3ccccc3)nc2n1	nt	-3	1.1	-2.1	0.73	nt	nt	nt	nt	-6
Cc1ccc(S(=O)(=O)N2CCCC2C(=O)OCc2nc3sc(C)c(C)c3c(=O)[nH]2)cc1 (centres undefined)	nt	-13	1.8	0.8	0.7	nt	nt	nt	nt	nt
COc1ccc(N2C(=O)c3ccccc3NC23C(=O)N(C)c2ccccc23)cc1 (centres undefined)	nt	-19	0.7	-1.1	0.66	nt	nt	nt	nt	2
Cc1ccc(/C=C/C(=O)C2C(=O)c3ccccc3C2=O)cc1	i	-19	-2.7	-4.9	0.65	9.8	-19	-1	12	6
COc1ccc(CCNCc2ccc(OCc3ccc(Cl)nc3)c(OC)c2)cc1OC	nt	57*	4.0	0.5	0.66	nt	nt	nt	nt	2
O=C(CCc1ccccc1)N1CCN(Cc2ccc(F)cc2Cl)CC1	i	9	-0.7	0.1	0.67	-25	-23	-21	-1.0	-4
CCC(C)(C(=O)NC1CCCC1)N(Cc1ccco1)C(=O)Cc1cccs1 (centres undefined)	nt	14	1.1	-0.3	0.68	nt	nt	nt	nt	nt
COc1cccc(NC(=O)CN(C)C(=O)Cn2cnc3ccccc3c2=O)c1	i	-5	-2.6	0.0	0.66	-0.6	4	4	-2.6	nt
O=C(CC1CCCCC1)NCC1CCCO1 (centres undefined)	nt	-3	-1.9	0.1	0.71	nt	nt	nt	nt	0
COc1ccc(Nc2nc(C)cc(C)n2)cc1Cl	i	9	-1.3	-4.7	0.67	3.0	-10	-8	-1.8	-8
O=C(O)CC(=O)Nc1ccccc1C(=O)O	nt	-27	-0.8	2.3	0.74	nt	nt	nt	nt	nt
O=C(NN1C(=O)c2ccc(-c3ccc4c(c3)C(=O)N(NC(=O)c3cccnc3)C4=O)cc2C1=O)c1cccnc1	i	-9	4.4	-0.2	0.69	-3.4	9	24	-2.2	-4
CC(C)=CCN1CCN(Cc2cccn2-c2ncccn2)CC1CCO (centres undefined)	nt	-4	1.1	0.6	0.68	1.1	31	14	1.8	-5
COc1ccc2c(CN(C)c3ccccc3)cc(=O)oc2c1	i	-4	nt	nt	nt	-8.1	0	-4	5.1	nt
CCN(CC)CCC(c1ccc2c(c1)OCO2)c1c(OC)cc(OC)c2c(-c3ccccc3)cc(=O)oc12 (centres undefined)	i	45	-1.0	-0.3	0.65	22	-10	-30	30	4
O=C(CCCC1=NS(=O)(=O)c2ccccc2N1)OCc1ccc(Cl)cc1	i	-17	0.7	0.6	0.63	-1.6	-42	-40	-2.0	-2
CCOC(=O)/C=C/C(=O)OCC(=O)Nc1ccc([N+](=O)[O-])cc1	i	-8	6.4	-0.1	0.6	0.9	-1	-5	-2.7	-8
Clc1ccc(-c2ccnc(Oc3ccc4ccccc4c3)n2)cc1	nt	11	0.7	1.8	0.77	nt	nt	nt	nt	0
O=C(NCc1cccs1)C(=O)NCC1OCCCN1S(=O)(=O)c1cccs1 (centres undefined)	i	-13	0.3	-0.3	0.74	2.1	12	2	0.0	1
Cn1c(N)c(C(=O)COC(=O)COc2ccc3ccccc3c2)c(=O)n(C)c1=O	nt	-14	3.5	-0.5	0.65	-1.7	-1	2	-0.2	1
Cc1ccc(OCC(=O)Nc2cccc(S(=O)(=O)N3CCCCC3)c2)c([N+](=O)[O-])n1	nt	21	5.2	-1.3	0.69	nt	nt	nt	nt	0
NC1=C(Cl)C(=O)c2ccc(S(N)(=O)=O)cc2C1=O	i	nt	89*	nt	0.62	1.6	-46	-71	-15	nt
Fc1ccccc1-c1csc(=Nc2cccnc2)n1CC1CCCO1 (centres undefined)	i	-3	3.1	0.4	0.65	5.5	-4	-8	-0.9	8
COc1cc([N+](=O)[O-])ccc1NC(=O)Nc1ccc(C(=O)N2CCCC2)cc1	i	25	5.0	-0.6	0.69	0.7	5	8	-3.7	-15
